Screening results (PubChem BioAssay)
rRNA inh HTS = selective bacterial rRNA inhibition in E. coli; 350,000 tested, 1.6% active; GFP signal change (wild-type ribosome), % (test concentration not listed); E. coli WT GFP vs humanized-ribosome RFP mutants, fluorescence, 24 h; active compounds read low; DMSO median 0, no signal -100; AID 720706;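 active means significant combined selectivity score with lowered wild-type GFP, culture density cut under 30%, mutant RFP and density less affected; inactive means any of these conditions unmet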; further: one replicate is shown; some compounds called inactive have numbers as strong as hits
MLL AF4-AF9 inh = blocks AF4 peptide binding to human AF9; P42568; AlphaScreen, biotin-AF4 peptide binding to FLAG-AF9; inhibition, % at 10 µM; 350,000 tested, 0.47% active; AID 651704;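 active means every replicate reaching a set inhibition limit, whatever the replicate mean, cut at about 25% in these data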;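 further: 0% = plate neutral control median and 100% = total signal loss; the record names both 10 and 1 µM as test concentration; the first replicate is given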
Target sequence (P42568 whole entry, looked up): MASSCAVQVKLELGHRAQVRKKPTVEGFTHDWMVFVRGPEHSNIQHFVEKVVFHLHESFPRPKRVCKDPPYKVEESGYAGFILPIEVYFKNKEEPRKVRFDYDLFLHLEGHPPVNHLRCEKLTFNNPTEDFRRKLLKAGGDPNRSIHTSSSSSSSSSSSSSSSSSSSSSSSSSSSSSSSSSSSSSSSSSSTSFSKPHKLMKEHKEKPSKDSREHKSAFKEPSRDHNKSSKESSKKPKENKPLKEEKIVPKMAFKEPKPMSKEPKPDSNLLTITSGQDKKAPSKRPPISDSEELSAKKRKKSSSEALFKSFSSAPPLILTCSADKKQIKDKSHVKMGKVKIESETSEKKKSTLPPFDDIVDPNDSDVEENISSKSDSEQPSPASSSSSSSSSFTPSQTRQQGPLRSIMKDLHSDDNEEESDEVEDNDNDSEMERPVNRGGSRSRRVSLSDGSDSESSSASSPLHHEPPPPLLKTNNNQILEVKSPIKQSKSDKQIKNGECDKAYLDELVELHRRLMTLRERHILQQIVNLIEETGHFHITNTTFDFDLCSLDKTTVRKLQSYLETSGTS
rRNA inh HTS OD600 = also measured in rRNA inh HTS; calls as there; OD600 change, %; measured here: OD600 growth;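 optical density of the mix in the first replicate; 0 = DMSO median and -100 = no signal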
rRNA inh HTS RFP = recorded beside rRNA inh HTS, whose call it bears; RFP signal change, %; measured here: RFP humanized mutant strains;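 first replicate; 0 = DMSO median and -100 = no signal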
Starred values were filed as active, the others as inactive; & = joins results of further samples.

cpd	rRNA inh HTS	rRNA inh HTS OD600	rRNA inh HTS RFP	MLL AF4-AF9 inh	Structure
1	3	-4	-2.3	0.4	CCN1[C@H](C(=O)NCCc2cn(C)cn2)[C@@H](CO)[C@@H]2Cn3c(ccc(-c4cccnc4)c3=O)[C@@H]21
2	-1	-11	1.8	5.0	COc1ccc(CN(C)C[C@H]2Oc3ccc(NC(=O)Nc4ccc(F)cc4)cc3C(=O)N([C@H](C)CO)C[C@H]2C)cc1
3	-7	0	6.9	-1.9	COc1ccccc1C#Cc1ccc2c(c1)[C@@H]1[C@@H](CCN1C(=O)c1ccccc1)[C@H](CO)N2
4	-16	-46	3.2	13	CC(=O)c1cccc(-c2ccc3c(c2)C(C)(Cc2ccccc2C#N)C(=O)N3)c1 (configuration not stated)
5	1	-3	-1.0	-2.0	O=C(NC[C@H]1[C@H](c2ccccc2)[C@@H](CO)N1Cc1ccccn1)C1CC1
6	7	2	2.1	-5.7	CC(C)S(=O)(=O)N1CCCC(c2cc(C(=O)NCc3ccccc3)no2)C1 (configuration not stated)
7	-8	-2	2.2	-3.1	C[C@H](NC(=O)C[C@@H]1CC[C@H]2[C@@H](COC[C@@H](O)CN2Cc2cc(F)ccc2F)O1)c1ccccc1
8	2	0	-0.4	-0.5	COc1ccc(-c2cnc3c(c2)C(=O)N([C@@H](C)CO)C[C@H](C)[C@H](CN(C)C(=O)C2CCCCC2)O3)cc1
9	0	-2	1.1	-3.2	C[C@H](CO)N1C[C@H](C)[C@H](CN(C)C(=O)NC2CCCCC2)Oc2c(NC(=O)c3ccc(-c4nccs4)cc3)cccc2C1=O
10	0	-5	0.0	-3.6	C#CCN(Cc1ccco1)C(=O)c1cc(COc2cccc3cccnc23)on1
11	7	11	0.9	-1.5	Nc1nc2c(nnn2C2CC(O)C(CO)O2)c(=O)[nH]1 (configuration not stated)
12	2	3	-0.4	-3.3	O=C([C@@H]1[C@@H](CO)[C@@H]2Cn3c(cccc3=O)[C@H]1N2CC1CCCC1)N1CCOCC1
13	0	8	1.6	-1.3	COc1ccc(-c2ccc([C@@H]3[C@@H](CO)N(C(=O)c4cccnc4)[C@H]3C#N)cc2)cc1
14	1	7	5.4	-1.0	COc1ccc(NC(=O)Nc2ccc3c(c2)[C@H]2C[C@@H](CC(=O)NC4CCCC4)O[C@@H](CO)[C@H]2O3)cc1
15	1	9	-1.8	-0.6	COc1ccc(CN(C)C[C@@H]2OCCCC[C@H](C)Oc3ccc(NC(=O)Nc4ccc(OC)cc4)cc3C(=O)N([C@@H](C)CO)C[C@H]2C)cc1
16	5	9	5.2	4.1	CNC[C@H]1Oc2ncc(-c3ccc(C)cc3)cc2C(=O)N([C@H](C)CO)C[C@H]1C
17	4	0	-0.2	-0.1	C[C@H](CO)N1C[C@H](C)[C@H](CN(C)S(=O)(=O)c2cccs2)Oc2ccc(NC(=O)Nc3cccc4ccccc34)cc2C1=O
18	1	11	-1.0	-5.7	COc1ccc(-c2cnc3c(c2)C(=O)N([C@H](C)CO)C[C@H](C)[C@H](CN(C)C(=O)NC(C)C)O3)cc1
19	-7	-29	1.3	1.2	Cc1noc(C)c1S(=O)(=O)Nc1ccc2c(c1)C(=O)N([C@@H](C)CO)C[C@@H](C)[C@H](CN(C)Cc1ccc(C(F)(F)F)cc1)O2
20	-2	-8	-0.1	-2.2	CC(C)NC(=O)N(C)C[C@@H]1OCCCC[C@H](C)Oc2ccc(NS(=O)(=O)c3ccc(Cl)cc3)cc2C(=O)N([C@@H](C)CO)C[C@H]1C

Sorted by the number under rRNA inh HTS (descending): 3 from the list above
No. | SMILES | rRNA inh HTS
11 | Nc1nc2c(nnn2C2CC(O)C(CO)O2)c(=O)[nH]1 (configuration not stated) | 7
5 | O=C(NC[C@H]1[C@H](c2ccccc2)[C@@H](CO)N1Cc1ccccn1)C1CC1 | 1
7 | C[C@H](NC(=O)C[C@@H]1CC[C@H]2[C@@H](COC[C@@H](O)CN2Cc2cc(F)ccc2F)O1)c1ccccc1 | -8

Random excerpt: 5 compounds from above.
cpd	rRNA inh HTS	rRNA inh HTS OD600	rRNA inh HTS RFP	MLL AF4-AF9 inh	Structure
11	7	11	0.9	-1.5	Nc1nc2c(nnn2C2CC(O)C(CO)O2)c(=O)[nH]1 (configuration not stated)
15	1	9	-1.8	-0.6	COc1ccc(CN(C)C[C@@H]2OCCCC[C@H](C)Oc3ccc(NC(=O)Nc4ccc(OC)cc4)cc3C(=O)N([C@@H](C)CO)C[C@H]2C)cc1
12	2	3	-0.4	-3.3	O=C([C@@H]1[C@@H](CO)[C@@H]2Cn3c(cccc3=O)[C@H]1N2CC1CCCC1)N1CCOCC1
2	-1	-11	1.8	5.0	COc1ccc(CN(C)C[C@H]2Oc3ccc(NC(=O)Nc4ccc(F)cc4)cc3C(=O)N([C@H](C)CO)C[C@H]2C)cc1
9	0	-2	1.1	-3.2	C[C@H](CO)N1C[C@H](C)[C@H](CN(C)C(=O)NC2CCCCC2)Oc2c(NC(=O)c3ccc(-c4nccs4)cc3)cccc2C1=O

More records
cpd	rRNA inh HTS	rRNA inh HTS OD600	rRNA inh HTS RFP	MLL AF4-AF9 inh	Structure
21	-2	1	-1.8	-4.6	CN(C)C(=O)c1ccc(-c2ccc3c(c2)[C@H]2[C@H](CCN2C(=O)C2CC2)[C@@H](CO)N3C)cc1
22	3	12	0.1	2.7	CN(C)C(=O)[C@@H]1[C@@H](CO)[C@@H]2Cn3c(ccc(-c4ccccc4F)c3=O)[C@H]1N2C(=O)c1ccncc1
23	1	2	-3.5	-2.2	CCCN1C[C@H](C)[C@H](OC)CN(C)C(=O)c2ccc(NS(=O)(=O)c3cn(C)cn3)cc2OC[C@@H]1C
24	-3	8	-1.5	-1.9	COc1ccccc1C#Cc1cnc2c(c1)C(=O)N([C@H](C)CO)C[C@@H](C)[C@H](CN(C)S(=O)(=O)c1cn(C)cn1)O2
25	1	-9	4.1	2.6	C[C@@H]1CN([C@@H](C)CO)C(=O)c2cccc(NS(=O)(=O)c3ccccc3)c2O[C@@H]1CN(C)C(=O)Nc1cccc2ccccc12
26	0	4	-3.8	0.1	Cc1noc(C)c1NC(=O)Nc1ccc2c(c1)CC(=O)N([C@@H](C)CO)C[C@@H](C)[C@H](CN(C)Cc1ccc(C(=O)Nc3ccccc3N)cc1)O2
27	-52	-75	-14	-0.4	Clc1cccc(CNc2ccn3nc(-c4ccccc4)cc3n2)c1
28	-2	-8	2.3	-3.3	CNC(=O)C[C@H]1CC[C@H]2[C@@H](COC[C@@H](O)CN2S(=O)(=O)c2ccc(Oc3ccccc3)cc2)O1
29	3	15	-0.7	1.8	C[C@H]1CN([C@@H](C)CO)C(=O)Cc2cc(NC(=O)CCCCCC(=O)Nc3ccccc3N)ccc2O[C@H]1CN(C)C(=O)NC1CCCCC1
30	3	3	-0.2	-0.1	C[C@H]1CN([C@@H](C)CO)C(=O)c2cc(-c3ccncc3)cnc2O[C@@H]1CN(C)C(=O)Nc1ccc2c(c1)OCO2
31	4	21	-6.2	-4.0	O=C(C1CC1)N1CC(=O)N2[C@H](C1)[C@H](c1ccc(Br)cc1)[C@@H]2CO
32	-7	-8	1.7	7.4	C[C@@H]1CCCCO[C@H](CN(C)S(=O)(=O)c2ccc(Cl)cc2)[C@H](C)CN([C@H](C)CO)C(=O)c2cc(N(C)C)ccc2O1
33	8	-1	0.8	-0.4	CC(=O)NC1(C)CCC2CC1C(C)=NC2(C)C (configuration not stated)
34	-6	-5	0.6	-0.9	CC(C)CC#Cc1cnc2c(c1)C(=O)N([C@H](C)CO)C[C@@H](C)[C@@H](CN(C)Cc1ccccc1F)O2
35	0	5	-1.9	-2.9	C[C@H](CO)N1C[C@H](C)[C@H](CN(C)C(=O)c2cccc(F)c2)Oc2cc(-c3cncnc3)ccc2S1(=O)=O
36	-9	-45	24	5.4	C[C@H]1CN([C@@H](C)CO)C(=O)c2cc(NC(=O)c3ccncc3)ccc2O[C@@H]1CN(C)Cc1ccc(-c2ccccc2)cc1
37	0	-2	1.3	0.2	COc1ccc(S(=O)(=O)Nc2ccc3c(c2)C(=O)N([C@@H](C)CO)C[C@H](C)[C@H](CN(C)S(=O)(=O)c2cccs2)O3)cc1
38	-3	-4	-0.9	1.5	Cc1ccc(S(=O)(=O)N(C)C[C@H]2OCCCC[C@@H](C)Oc3ccc(NC(=O)Nc4c(C)noc4C)cc3C(=O)N([C@@H](C)CO)C[C@H]2C)cc1
39	-24	-34	-5.7	6.4	COc1ccc(OC)c(NC(=O)C2(C)CCN2Cc2cccc(OC)c2OC)c1 (configuration not stated)
40	9	11	6.0	0.2	Cc1cc(Br)cn2c(Cc3ccccc3C(F)(F)F)c(-c3ccco3)nc12
41	3	2	-0.4	-1.8	C[C@@H]1CCCCO[C@@H](CN(C)C(=O)C2CCCCC2)[C@@H](C)CN([C@@H](C)CO)C(=O)c2cc(NC(=O)C3CCCCC3)ccc2O1
42	0&1	7&-2	-0.8&-3.2	0.4&-15&-29	C[C@@H]1CN([C@H](C)CO)C(=O)c2cc(C3=CCCCC3)cnc2O[C@@H]1CN(C)Cc1ccccc1C(=O)O
43	0	15	1.0	6.5	CCS(=O)(=O)N1CCCCN2[C@H](C1)[C@H](c1ccc(-c3ccccc3F)cc1)[C@@H]2CO
44	-1	-7	-0.9	-1.8	O=C(c1cccc(F)c1)N1CC2(C1)[C@H](c1ccccc1)[C@@H](CO)N2C(=O)C1CCC1
45	2	5	-1.7	1.0	COCCNC(=O)C1CCCN(C(=O)c2sc(-c3ccccc3)nc2C)CC1 (configuration not stated)
46	2	9	-2.5	3.3	CN(C)CC#Cc1ccc([C@@H]2[C@H](CO)N3CCCCN(C(=O)Nc4ccccc4F)C[C@@H]23)cc1
47	7	23	-5.5	0.9	COc1ccc(C#Cc2ccc3c(c2)[C@@H]2[C@@H](CCN2S(=O)(=O)c2ccccc2C)[C@@H](CO)N3)cc1
48	5	-9	7.5	2.0	C[C@H](CO)N1C[C@H](C)[C@@H](CN(C)C(=O)Nc2ccc3c(c2)OCO3)Oc2cc(C3=CCCC3)ccc2S1(=O)=O
49	-8	-8	-1.1	-0.7	C[C@H](CO)N1C[C@H](C)[C@H](CN(C)C(=O)NC2CCCCC2)Oc2ccc(NC(=O)Nc3cccc4ccccc34)cc2C1=O
50	0	-3	4.0	-0.1	COc1ccc(S(=O)(=O)Nc2ccc3c(c2)CC(=O)N([C@H](C)CO)C[C@@H](C)[C@@H](CN(C)Cc2ccc(C(F)(F)F)cc2)O3)cc1
51	5	6	1.8	-6.7	CO[C@@H]1CN(C)C(=O)c2ccc(NS(C)(=O)=O)cc2OC[C@H](C)N(C(=O)C2CCOCC2)C[C@H]1C
52	2	1	0.1	1.5	CCC(=O)N1CC[C@H]2[C@@H]1c1cc(-c3cccc(OC)c3)ccc1N(C)[C@H]2CO
53	2	-4	-3.8	-4.8	COc1ccc(CN(C)C[C@H]2Oc3c(NC(=O)Nc4ccccc4)cccc3C(=O)N([C@H](C)CO)C[C@H]2C)cc1
54	4	4	-1.6	0.7	C[C@H](CO)N1C[C@H](C)[C@@H](CN(C)CC2CC2)Oc2ccc(NC(=O)Cc3ccccc3)cc2CC1=O
55	1	-1	-0.6	-3.2	C[C@@H]1CN([C@@H](C)CO)C(=O)c2cc(NS(=O)(=O)c3cccs3)ccc2O[C@@H](C)CCCCO[C@@H]1CN(C)C(=O)Nc1ccc(C(F)(F)F)cc1
56	-1	12	-1.5	-2.8	C[C@H](O)C#Cc1cnc2c(c1)C(=O)N([C@@H](C)CO)C[C@@H](C)[C@H](CN(C)C(=O)CN1CCOCC1)O2
57	6	18	-4.9	0.6	C[C@@H]1CN([C@H](C)CO)C(=O)c2cc(NC(=O)Cn3cnnn3)ccc2O[C@@H]1CN(C)Cc1ccccc1
58	1	6	2.0	-2.3	COCC#Cc1cnc2c(c1)C(=O)N([C@H](C)CO)C[C@@H](C)[C@H](CN(C)C(=O)C1CCOCC1)O2
59	0	1	2.5	2.6	C[C@@H]1CN([C@H](C)CO)C(=O)c2cccc(NC(=O)CCCCCC(=O)Nc3ccccc3N)c2O[C@H]1CN(C)C(=O)Nc1ccc(F)cc1
60	-3	-3	-3.6	2.1	CC(=O)N(C)C[C@H]1Oc2cc(-c3cccc(C#N)c3)ccc2S(=O)(=O)N([C@@H](C)CO)C[C@@H]1C
61	18	7	-0.1	-1.8	COc1cccc(C(=O)Nc2ccc(Oc3nnc(-c4ccccc4)c4ccccc34)cc2)c1

Of the compounds above, three contain two or more sulfur atoms.
cpd	rRNA inh HTS	rRNA inh HTS OD600	rRNA inh HTS RFP	MLL AF4-AF9 inh	Structure
17	4	0	-0.2	-0.1	C[C@H](CO)N1C[C@H](C)[C@H](CN(C)S(=O)(=O)c2cccs2)Oc2ccc(NC(=O)Nc3cccc4ccccc34)cc2C1=O
37	0	-2	1.3	0.2	COc1ccc(S(=O)(=O)Nc2ccc3c(c2)C(=O)N([C@@H](C)CO)C[C@H](C)[C@H](CN(C)S(=O)(=O)c2cccs2)O3)cc1
55	1	-1	-0.6	-3.2	C[C@@H]1CN([C@@H](C)CO)C(=O)c2cc(NS(=O)(=O)c3cccs3)ccc2O[C@@H](C)CCCCO[C@@H]1CN(C)C(=O)Nc1ccc(C(F)(F)F)cc1

Not all compounds are listed (hit frequency here may not be typical).
